Screens deposited in PubChem BioAssay by ICCB-Longwood Screening Facility, Harvard Medical School.
GIV-Gai inh – blocks GIV peptide binding to rat Galpha-i3. P08753. Galpha-i3/FITC-GIV peptide fluorescence polarization, 90 min; hits give low values; scaled: aluminum fluoride 0%, vehicle 100%. percent of control (FP), % (no concentration beside the values). actives 0.42% (n = 210,000). AID 1224905;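 active = replicate mean at 85% of control or lower, very high polarization wells dropped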;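 also: wells of about 15 µL received 100 nL stock; the first replicate is given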
Target sequence (P08753 whole entry, looked up): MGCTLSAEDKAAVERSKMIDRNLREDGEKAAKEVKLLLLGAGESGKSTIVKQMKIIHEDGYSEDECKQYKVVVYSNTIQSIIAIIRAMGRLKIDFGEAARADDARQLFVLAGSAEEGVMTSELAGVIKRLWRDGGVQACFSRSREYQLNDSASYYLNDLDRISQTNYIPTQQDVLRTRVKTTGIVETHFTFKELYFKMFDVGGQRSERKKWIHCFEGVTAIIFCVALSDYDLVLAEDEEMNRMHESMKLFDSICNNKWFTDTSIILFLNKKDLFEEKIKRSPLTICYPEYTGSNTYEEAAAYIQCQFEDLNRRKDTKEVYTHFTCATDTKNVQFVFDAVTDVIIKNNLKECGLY
HCMV NEC inh – disrupts HCMV UL50-UL53 complex binding; HTRF UL50-UL53 interaction, normalized percent inhibition; actives 0.15% (n = 190,000); inhibition, % (test concentration not listed); AID 1918969;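 active = both replicates at 50% or more, plus weaker picks with an unusually low signal ratio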;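 also: stock transfer was 100 nL into about 20 µL; 0% = negative control wells and 100% = wells with untagged competitor protein; inactives centre near -12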
Sa growth 42C – inhibitors of Staphylococcus aureus growth at 42 °C; S. aureus RN4220 growth, OD600, 20 h; hits give low values; relative growth, % (no concentration beside the values); actives 0.53% (n = 170,000);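 active = growth at 42 °C up to 50% and 20 or more points under that at 30 °C, or under 10% at both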;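 also: 300 nL library stock went into each well; scaled to the means of positive and negative controls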
Sa growth 42C second temp – further read-out of Sa growth 42C, marked with its call; relative growth, %; measured here: growth at 30 °C;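 optical density after 20 h as mean of two plates; 100% = untreated growth and lower means inhibition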
Starred values were filed as active, the others as inactive; . = no result given; & = joins results of further samples. An unsorted share of the library. Share with any hit: about 0.8%.

nr	SMILES	GIV-Gai inh	HCMV NEC inh	Sa growth 42C	Sa growth 42C second temp
1	COc1ccc(N2CCN(C(CNC(=O)c3cccc(Cl)c3)c3ccc4c(c3)OCO4)CC2)cc1 (stereo unspecified)	99	-31	79	81
2	O=S(=O)(NCCc1nnc2ccc(SCc3ccc(C(F)(F)F)cc3)nn12)c1ccccc1	105	.	96	96
3	Cc1ccc(NC(=O)c2oc3ccccc3c2NC(=O)C23CC4CC(CC(C4)C2)C3)cc1	100	-16	104	85
4	COC(=O)CC(C(=O)Nc1cc(C(=O)OC)cc(C(=O)OC)c1)N1CCN(C)CC1 (stereo unspecified)	108	5	105	79
5	CCc1cccc(C)c1NC(=O)C1CCN(c2nn3c(=O)cc(C)nc3s2)CC1	113	2	96	91
6	Cc1ccc(-c2ccc(CCC(=O)O)n2-c2cccc(C(=O)O)c2)cc1	97	-13	.	.
7	CCCCC(CC)CNC(=O)Cc1ccc(-n2c(=O)[nH]c3ccccc3c2=O)cc1 (stereo unspecified)	103	.	82	87
8	CN(C)c1ccc(C=Nc2ccc3c(c2)OCO3)cc1	105	-19	94	67

Entries of single compounds from above.
CCCCC(CC)CNC(=O)Cc1ccc(-n2c(=O)[nH]c3ccccc3c2=O)cc1 (stereo unspecified) is listed with GIV-Gai inh: 103; HCMV NEC inh: .; Sa growth 42C: 82; Sa growth 42C second temp: 87
COC(=O)CC(C(=O)Nc1cc(C(=O)OC)cc(C(=O)OC)c1)N1CCN(C)CC1 (stereo unspecified) is listed with GIV-Gai inh: 108; HCMV NEC inh: 5; Sa growth 42C: 105; Sa growth 42C second temp: 79

Going on with the list.
nr	SMILES	GIV-Gai inh	HCMV NEC inh	Sa growth 42C	Sa growth 42C second temp
9	Cc1cc2c(cc1S(=O)(=O)N(C)CC(=O)Nc1ccc(C#N)cc1)OCC(=O)N2	101	.	109	83
10	COc1ccc(NC(=O)C2CCCN(S(=O)(=O)c3ccc4c(c3)oc(=O)n4C)C2)c(OC)c1 (stereo unspecified)	108	-11	78	104
11	CCN1CCCC1CNC(=O)Cn1nc(C)n2cccc2c1=O (stereo unspecified)	97	-22	73	82
12	Cc1ccc(Cl)cc1N1CCN(C(=O)c2nn(C)c3c2CS(=O)(=O)c2ccccc2-3)CC1	100	-16	97	96
13	CCCn1c(=O)c2sccc2n2c(CCCC(=O)NC3CCCCC3)nnc12	106	.	118	83
14	Cc1ccc2nc(-c3ccc(O)cc3)c(Nc3ccc4c(c3)OCCO4)n2c1	97	51	107	87
15	COc1ccc(-c2nc(CN3CCN(C(=O)c4cccc(OC)c4)CC3)c(C)o2)cc1	103	-13	.	.
16	CCCNC(=O)C1CCN(c2nnc(-n3c(C)ccc3C)s2)CC1	105	-16	80	76
17	C=CCn1c(SCc2nc3ccccc3c(=O)n2CC#N)nc2ccc(Cl)cc2c1=O	.	-3	64	92
18	C=C(C)CN1CCN(c2cc(C)nc3cc(-c4ccc(OC)c(OC)c4)nn23)CC1	108	-28	.	.
19	O=S(=O)(NCc1ccc2c(c1)CCO2)c1ccc(F)c(F)c1	107	-23	99	86
20	COC(=O)c1[nH]c2c(c1C)C(=O)C(C(=O)OC)C(C)C2 (stereo unspecified)	104	-7	92	83
21	COc1ccc(-c2noc(CC(=O)Nc3cc(OC)ccc3OC)n2)cc1	103	.	115	89
22	CC1CCCC(NC(=O)COC(=O)COc2ccccc2)C1C (stereo unspecified)	.	-15	110	94
23	CCCCNC(=O)c1cccc(Nc2ccnc(-c3cccc(C)c3)n2)c1	105	-12	.	.
24	COc1ccc(-c2cc3nc(C)c(CCC(=O)NCc4ccc5c(c4)OCO5)c(C)n3n2)c(OC)c1	101	.	86	87
25	Nc1ccc2c(c1)Nc1ccccc1CC2	100	-24	102	83
26	CN1C=C/C(=C\c2cc[n+](C)c3ccccc23)c2ccccc21	105	.	0.6*	1.2*
27	Cc1cc(-c2cc(C)[nH]n2)n[nH]1	.	2	104	94
28	COC(=O)c1ccc(CS(=O)(=O)c2ccccc2OC)o1	102	2	101	102
29	COc1ccc(-c2nn(-c3ccccc3)cc2CC#N)cc1OC	.	-30	121	85
30	CC(NC(=O)C1CCC(CNS(=O)(=O)c2cccc3nsnc23)CC1)c1ccccc1 (stereo unspecified)	101	-48	91	87
31	O=C(NCCC1=CCCCC1)C1CCN(c2ncnc3c2sc2ncccc23)CC1	104	-30	.	.
32	NC(=O)Cn1c(=O)n(-c2ccccc2)c(=O)c2oc3ccccc3c21	99	-40	94	84
33	Cc1nnc(SC(C)C(=O)NCc2ccco2)n1C1CCCCC1 (stereo unspecified)	.	0	102	97
34	COc1cc(-n2cc(-c3ccccc3)n(CC(=O)Nc3ccccc3C)c2=O)cc(OC)c1OC	103	-9	99	84
35	Cc1cc(C)nc(NS(=O)(=O)c2ccc(NC(=O)c3cc(Cl)cc(Cl)c3)cc2)n1	103	8	.	.
36	CC1(C)CC(=O)c2cc(-c3nc(-c4ccc(Br)cc4)cs3)c(=O)n(-c3ccccc3)c2C1	109&100	3&-33	97	106
37	CCOc1ccc(-n2c(SCC(=O)Nc3ccc(CC)cc3)nc3c(oc4ccccc43)c2=O)cc1	100	-19	96	89
38	O=C(CSc1ccc(C(F)(F)F)cn1)c1ccc(Cl)cc1	102	8	92	100
39	O=C(NCc1ccc(Cl)cc1)C1CCN(S(=O)(=O)Cc2ccccc2)CC1	101	-23	94	88
40	CSc1sc(C)cc1C(N)=O	.	-3	87	88
41	O=C1CCC(=O)N1c1nc2n(n1)C(c1ccccc1Cl)C=C(c1ccccc1)N2 (stereo unspecified)	101	-10	.	.
42	CN(CC(=O)NC1CC1)S(=O)(=O)c1ccccc1	103	-6	103	94
43	CCc1cccc(C)c1NS(=O)(=O)c1c(C(=O)N2CCCCCC2)c(C)n(C)c1C	99	.	87	88
44	O=S(=O)(c1ccccc1)N1CCCc2ccccc21	109	-9	100	123
45	O=C(NCc1nc2cccnc2n1Cc1ccc(F)cc1)c1ccccc1C(F)(F)F	103	.	108	95
46	Cn1nnc2cc(C(=O)N3CCc4ccccc4C3)ccc21	102	12	.	.
47	CCC(C)n1c(SCC(=O)NCCc2ccc(OC)c(OC)c2)nc2ccsc2c1=O (stereo unspecified)	101	2	105	73
48	O=C(NCC(=O)N1CCCC1)c1ccc(Br)o1	102	2	95	105
49	CC(NC(=O)c1ccc(CO)cc1)C(=O)O (stereo unspecified)	.	-29	78	90
50	Cc1ccc2c(c1)N(S(=O)(=O)c1c(C)[nH]c(=O)[nH]c1=O)CCO2	105	-14	105	81
51	COc1ccc(-c2csc3ncnc(NC4CC4)c23)cc1	105	-1	.	.
52	COCCCNC(=O)c1ccc2c(c1)N(Cc1ccccc1F)C(=O)c1ccccc1S2=O (stereo unspecified)	100	-21	92	83
53	CCCC(=O)n1nc(CCC)c2c1CC(C)(C)CC2=O	.	-33	107	87
54	COC(=O)NCC(c1ccco1)N1CCN(c2ccccc2)CC1 (stereo unspecified)	107	-7	108	91
55	COc1ccccc1N1CCN(C(=O)CN(c2cccc(Cl)c2C)S(C)(=O)=O)CC1	92	-10	.	.
56	Cc1ccc(CCNC(=O)Cn2ncc3c(=O)oc4ccccc4c32)cc1	109	8	99	105

Of the compounds above, these have a COOH group:
nr	SMILES	GIV-Gai inh	HCMV NEC inh	Sa growth 42C	Sa growth 42C second temp
6	Cc1ccc(-c2ccc(CCC(=O)O)n2-c2cccc(C(=O)O)c2)cc1	97	-13	.	.
49	CC(NC(=O)c1ccc(CO)cc1)C(=O)O (stereo unspecified)	.	-29	78	90

A second format for 3 compounds above.
49) CC(NC(=O)c1ccc(CO)cc1)C(=O)O (stereo unspecified)
- GIV-Gai inh: .
- HCMV NEC inh: -29
- Sa growth 42C: 78
- Sa growth 42C second temp: 90

50) Cc1ccc2c(c1)N(S(=O)(=O)c1c(C)[nH]c(=O)[nH]c1=O)CCO2
- GIV-Gai inh: 105
- HCMV NEC inh: -14
- Sa growth 42C: 105
- Sa growth 42C second temp: 81

51) COc1ccc(-c2csc3ncnc(NC4CC4)c23)cc1
- GIV-Gai inh: 105
- HCMV NEC inh: -1
- Sa growth 42C: .
- Sa growth 42C second temp: .

Given field by field: part of the list above.
[49] CC(NC(=O)c1ccc(CO)cc1)C(=O)O (stereo unspecified)
  GIV-Gai inh = .; HCMV NEC inh = -29; Sa growth 42C = 78; Sa growth 42C second temp = 90
[51] COc1ccc(-c2csc3ncnc(NC4CC4)c23)cc1
  GIV-Gai inh = 105; HCMV NEC inh = -1; Sa growth 42C = .; Sa growth 42C second temp = .

The list continues.
nr	SMILES	GIV-Gai inh	HCMV NEC inh	Sa growth 42C	Sa growth 42C second temp
57	Cc1cc(C)nc(SCc2cnc(C)nc2N)n1	103	.	81	77
58	Nc1ccc2nn(-c3ccccc3)nc2c1	.	12	90	88
59	COc1ccc(C2CC(=O)C3=C(C2)Nc2ccccc2NC3c2ccc(Cl)c([N+](=O)[O-])c2)cc1 (stereo unspecified)	107	-11	.	.
60	CC(c1ccccc1)n1c(NC(=O)c2ccco2)c(S(=O)(=O)c2ccccc2)c2nc3ccccc3nc21 (stereo unspecified)	.	-7	34	22
61	O=C(Cn1c(=O)nc(-c2ccccc2)c2ccccc21)NCc1ccccc1Cl	96	.	117	74
62	Cc1ccc(Nc2cc(C)c(C#N)c3nc4ccccc4n23)c(C)c1	101	-33	88	86
63	Cc1ccc(C(=O)COC(=O)c2nc(Cl)ccc2Cl)cc1	.	-3	88	97
64	CCS(=O)(=O)c1ccc(C#N)cn1	101	2	102	59
65	O=C(CCc1nnc(C(=O)Nc2ccccc2)s1)NCCc1c[nH]c2ccc(Cl)cc12	103	-3	.	.
66	Cc1ccc(C)c(NC(=O)CN(C)C(=O)NCc2cccnc2)c1	.	-17	72	92
67	O=c1c(NCc2ccccc2)nccn1-c1ccc2c(c1)OCO2	105	-19	.	.
68	CCCNC(=O)COc1coc(CSc2nncn2C)cc1=O	108	-6	98	102
69	O=Nc1ccc(NOC(=O)c2ccc(Br)cc2)cc1	99	-29	55	68
70	COc1ccc(S(=O)(=O)N(CCc2ccccc2)CC(=O)Nc2cccc(OC)c2)cc1	106	18	106	102
71	O=C(N/N=C/c1cccc(O)c1)C1C2CCCCC21 (stereo unspecified)	93	-24	93	67
72	Cc1cc(Sc2ccccc2NC(=O)Nc2cccc(Cl)c2)n2ncnc2n1	106	-30	.	.
73	COc1ccc(OC)c(CNC(=O)C2(NS(=O)(=O)c3cccc4cccnc34)CCCCC2)c1	103	-30	.	.
74	CC1(C)Cc2c(sc(NC(=O)c3ccccc3)c2C#N)C(C)(C)N1	.	-8	109	84
75	CCOC(=O)c1ccc(NC(=O)C(=O)NCc2ccco2)cc1	107	-34	108	86
76	c1ccc(-c2cnc(CSc3nc4c(n3-c3ccccc3)CCCC4)o2)cc1	.	-23	59	23
77	O=S(=O)(c1ccc(F)cc1)N(CC(O)Cn1c2ccccc2c2ccccc21)c1ccccc1 (stereo unspecified)	103	-14	104	70
78	O=C(c1cc(S(=O)(=O)N2CCCC2)ccc1Cl)N1CCN(c2cccc(Cl)c2)CC1	107	-24	.	.
79	COc1cc(-c2cc(C(F)(F)F)n3ncc(C(=O)Nc4ccc(O)cc4)c3n2)cc(OC)c1OC	101	5	.	.
80	Cc1ccc(OCCCn2c(CCNC(=O)C3CCCCC3)nc3ccccc32)c(C)c1	112	-6	105	90
81	COc1ccc(Cc2nc(C)cc(Cl)n2)cc1Cl	103	-17	98	85
82	CCOc1ccc2nc(SCC(=O)N3CCN(C(=O)c4ccc(C)cc4)C3)sc2c1	101	.	94	86
83	Cc1ccc(-c2c(CN3CCN(C)CC3)csc2C)cc1	110	-4	6.2*	0.3*
84	CCN1CCN(c2cc(C)c3cc(NC(=O)C4CCCCC4)ccc3n2)CC1	101	-19	91	88
85	COc1cc(OC)c(NC(=O)N2CCN(Cc3nc4cccnc4n3-c3ccccc3)CC2)cc1Cl	104	-10	.	.
86	Cc1noc(C(=O)N2CCN(C(c3ccccc3)c3ccccc3)CC2)c1Cl	100	-6	89	75
87	Cc1cn(CCC(=O)Nc2ccc(F)cc2)c2ccccc12	97	-24	88	92
88	O=C(CN1C(=O)CCC1=O)c1ccc2c(c1)OCCO2	.	-31	119	80
